Screening data: PubChem BioAssay, several laboratories
Ecoli rRNA inh: inhibitors of bacterial rRNA selective over humanized ribosomes; E. coli WT GFP vs humanized-ribosome RFP mutants, fluorescence, 24 h; hits give low values; DMSO median 0, no signal -100; GFP signal change (wild-type ribosome), % (concentration not given with the values); 350,000 tested, 1.6% active;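 active = significant combined selectivity score with lowered wild-type GFP, culture density cut under 30%, mutant RFP and density less affected; inactive = any of these conditions unmet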; note: one replicate is shown; some compounds called inactive have numbers as strong as hits
Vif A3G: HIV-1 Vif–A3G interaction blockers – biochemical, TR-FRET, GST-Vif 1-94, biotin-A3G peptide, dose response retest, primary screen (AID 1117319); TR-FRET GST-Vif / biotin-A3G peptide binding; higher % means a stronger effect; test concentration not given here; strong numbers were not always called active; inhibition, %; hits with a dose series show IC50 in µM; 260,000 tested, 0.57% active;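 active = above the screen mean plus three standard deviations and confirmed in dose response; inconclusive = results disagree or hit not tested in dose response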;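 note: Vif residues 1-94 fused to GST binding biotinylated APOBEC3G peptide 110-148; 0% = full assay without inhibitor and 100% = GST in place of GST-Vif; retest series ran down from 100 µM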
Bfl-1 A1 inh: inhibitors of the anti-apoptotic protein A1, read as caspase activation; MEF A1-2A-BIM cells, Caspase-Glo 3/7 luminescence, 3 h; percent of clofoctol response, vehicle zero; caspase activation, % (no concentration beside the values); 330,000 tested, 0.066% active; AID 2462;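 active = over half of replicate activation scores above 10%, or exactly half above 10 with the replicate mean above 10; inconclusive = replicate mean below 10 yet half the replicates above 10; inactive = over half of replicates below 10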;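 note: wells of about 30 µL received 50 nL stock; many hits fall short of the cut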
MLL AF4-AF9 inh: blocks AF4 peptide binding to human AF9 | AlphaScreen, biotin-AF4 peptide binding to FLAG-AF9 | P42568 | inhibition, % at 10 µM | 350,000 tested, 0.47% active;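 active = every replicate reaching a set inhibition limit, whatever the replicate mean, cut at about 25% in these data; inconclusive = mean inhibition reaches that limit but some replicates miss it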;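 note: 0% = plate neutral control median and 100% = total signal loss; the record names both 10 and 1 µM as test concentration; the first replicate is given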
Target sequence (P42568 whole entry, looked up): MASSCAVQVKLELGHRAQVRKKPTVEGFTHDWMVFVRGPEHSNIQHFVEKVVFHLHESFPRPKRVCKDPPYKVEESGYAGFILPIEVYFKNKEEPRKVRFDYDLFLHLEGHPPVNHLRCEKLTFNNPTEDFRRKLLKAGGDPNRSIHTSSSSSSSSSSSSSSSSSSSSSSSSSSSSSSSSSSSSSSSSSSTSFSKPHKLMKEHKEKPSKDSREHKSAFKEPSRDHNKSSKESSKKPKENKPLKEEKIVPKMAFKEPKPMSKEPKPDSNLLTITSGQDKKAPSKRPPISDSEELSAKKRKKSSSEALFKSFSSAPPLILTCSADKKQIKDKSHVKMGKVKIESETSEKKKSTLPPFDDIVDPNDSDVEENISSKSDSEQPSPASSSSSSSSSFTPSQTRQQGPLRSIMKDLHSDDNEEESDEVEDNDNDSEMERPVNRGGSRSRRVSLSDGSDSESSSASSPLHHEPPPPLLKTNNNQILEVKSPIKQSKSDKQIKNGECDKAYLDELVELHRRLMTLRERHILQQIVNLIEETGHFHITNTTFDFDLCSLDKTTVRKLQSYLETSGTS
RanGTP-Impb inh: disruptors of Ran-importin-beta complex formation – biochemical, FRET, CFP-Ran, YFP-importin-beta, homogeneous, primary screen | 300,000 tested, 1.1% active | cell-free CFP-Ran/YFP-importin-beta FRET ratio | inhibition, % (no concentration beside the values) | AID 2216;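 active = most replicates above 15%; inconclusive = exactly half above 15%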;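 note: 0% = DMSO wells and 100% = Ran loaded with GDP instead of GTP; wells of about 40 µL received 100 nL stock; the first replicate is given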
T cruzi repl: blocks replication of Trypanosoma cruzi | T. cruzi beta-gal in NIH3T3, luminescence, 90 h | inhibition, % (test concentration not listed) | 300,000 tested, 1.4% active | AID 1885;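 active = mean inhibition across valid replicates above about 55%, limit read from the data; inconclusive = mean below that limit but half or more replicates reach it; inactive = mean below it, under half of replicates reach it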;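 note: signal also drops with host cell toxicity which is not excluded here; 0% = plate median of DMSO wells and 100% = zero luminescence signal; higher percent means less beta-gal luminescence so fewer parasites; stock transfer was 50 nL into about 50 µL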
Beta apoptosis: beta cell apoptosis inhibition | INS-1E cytokine-induced death, ATP luminescence, 48 h; percent of positive-control rescue, neutral wells zero | protection from apoptosis, % (concentration not given with the values) | 300,000 tested, 0.8% active | AID 435005;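 active = all replicates at 75% or more, or half of them and the mean; inconclusive = half reach 75% but not the mean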;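 note: 0% = cytokine-treated negative control wells and 100% = positive control rescue; higher means more ATP so stronger rescue from cytokine killing; wells of about 40 µL received 100 nL stock; the first replicate is given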
Calb FLC: C. albicans growth modulation with fluconazole. growth inhibition, % (concentration not given with the values). 300,000 tested, 0.57% active. C. albicans CaCi-2 (fluconazole-resistant clinical isolate) + fluconazole, Alamar Blue growth, 48 h;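 active = most replicates above 75%; inconclusive = exactly half above 75%; inactive = most below 75%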;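 note: all wells also contain fluconazole at 8 µg/ml as a sub-toxic cotreatment; 0% = median of DMSO wells and 100% = median of geldanamycin control wells; wells of about 8 µL received 7.5 nL stock; the first replicate is given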
Ecoli rRNA inh OD600: second read-out of Ecoli rRNA inh, no call of its own (marks repeat the call); OD600 change, %; measured here: OD600 growth;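 optical density of the mix in the first replicate; 0 = DMSO median and -100 = no signal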
Ecoli rRNA inh RFP: second read-out of Ecoli rRNA inh, no call of its own (marks repeat the call); RFP signal change, %; measured here: RFP humanized mutant strains;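 first replicate; 0 = DMSO median and -100 = no signal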
Starred values were filed as active, the others as inactive; ? = inconclusive; · = no result given; & = joins results of further samples. Not all compounds are listed. The share of hits here may be higher or lower than overall.

The opening 2 compounds, ahead of the listing:
#	canonical_smiles	Ecoli rRNA inh	Ecoli rRNA inh OD600	Ecoli rRNA inh RFP	Vif A3G	Bfl-1 A1 inh
1	CC(=O)Nc1ccc(NC(=O)Cn2cnc3c(nnn3Cc3ccc(F)cc3)c2=O)cc1	2	3	-2.3	-1%	-0.6
2	O=C(/C=C/c1cccs1)N1CCC2(CC1)Oc1ccc(F)cc1C(=O)C21CC(c2ccccc2)=NO1 (stereo not given)	8	8	3.8	·	0.3

#	MLL AF4-AF9 inh	RanGTP-Impb inh	T cruzi repl	Beta apoptosis	Calb FLC
1	-5.3	-0.8	-16	-2	32
2	1.5	-0.3	-17	-2	4

The whole of this part, previewed entries included:
#	canonical_smiles	Ecoli rRNA inh	Ecoli rRNA inh OD600	Ecoli rRNA inh RFP	Vif A3G	Bfl-1 A1 inh
1	CC(=O)Nc1ccc(NC(=O)Cn2cnc3c(nnn3Cc3ccc(F)cc3)c2=O)cc1	2	3	-2.3	-1%	-0.6
2	O=C(/C=C/c1cccs1)N1CCC2(CC1)Oc1ccc(F)cc1C(=O)C21CC(c2ccccc2)=NO1 (stereo not given)	8	8	3.8	·	0.3
3	CCOC(=O)CCc1c(C)n[nH]c1C	·	·	·	16%	0.2
4	COc1cc(/C=N/n2cnn(Cc3ccccc3Cl)c2=S)cc(OC)c1OC	-2	-13	-0.1	·	-0.1
5	Cc1cc(NC(=O)CSc2ccc3c(c2)OCCO3)no1	·	·	·	-1%	-0.4
6	C=C(C)C1Cc2c(C)nn(-c3ccccn3)c2C1 (stereo not given)	·	·	·	-2%	0.5
7	CC(=O)C1=C(C)NC(SCC(=O)c2ccc(F)cc2)=C(C#N)C1c1ccco1 (stereo not given)	-17	-14	-1.2	?	-0.8
8	CC(C)C(=O)NNC(=O)c1csc(-c2cccs2)n1	-1	-13	-2.7	14%	-0.2
9	O=C(Nc1cccnc1)c1cccc(S(=O)(=O)N2CCOCC2)c1	0	-1	-1.6	23%	-0.6
10	CCOc1ccc(NC(=O)N2CC=C(n3c(=O)[nH]c4ccccc43)CC2)cc1	·	·	·	7%	0.3
11	CCCC(CCC)=NNc1ccc(S(=O)(=O)Nc2ccccc2OC)cc1[N+](=O)[O-]	·	·	·	-2%	1.3
12	COc1cc2cc(CN(C(=O)Nc3ccccc3)C3CCCC3)c(=O)[nH]c2cc1OC	·	·	·	2%	-1.0
13	CCOc1ccc2nc(SC3CC(=O)N(c4ccccc4)C3=O)sc2c1 (stereo not given)	·	·	·	2%	-0.4
14	COc1cccc(C(C(=O)NC2CCCC2)N(C(=O)c2ccco2)c2ccccc2)c1OC (stereo not given)	-4	1	3.6	·	-1.0
15	CCOc1nc(C)ccc1-c1noc(-c2ccncc2)n1	·	·	·	-2%	-0.1

#	MLL AF4-AF9 inh	RanGTP-Impb inh	T cruzi repl	Beta apoptosis	Calb FLC
1	-5.3	-0.8	-16	-2	32
2	1.5	-0.3	-17	-2	4
3	-2.5	-1.9	-12	-2	-9
4	5.5	-3.3	14	-3	0
5	·	1.5	-2	0	-4
6	·	3.3	2	-6	15
7	2.1	-15	20	-4	40
8	0.9	-0.6	2	-7	4
9	2.9	-3.0	-10	0	-26
10	·	-0.3	-14	4	2
11	·	4.5	40	11	-3
12	·	-3.3	7	0	-4
13	·	3.4	-5	-7	1
14	0.4	0.3	1	-6	7
15	·	-3.6	3	-1	9

The list continues:
#	canonical_smiles	Ecoli rRNA inh	Ecoli rRNA inh OD600	Ecoli rRNA inh RFP	Vif A3G	Bfl-1 A1 inh
16	COc1ccc(CCNC(=O)c2ccc(Br)cc2)cc1	11	12	-1.1	0%	0.3
17	O=C(NNc1ccccn1)C(=O)NNS(=O)(=O)c1ccc(Cl)cc1	·	·	·	-5%	0.4
18	O=C(CN1CCOc2ccccc21)NCc1ccco1	8	6	2.6	7%	-0.3
19	O=C(c1ccc(OCC2CCCO2)cc1)N1CCc2ccccc2C1 (stereo not given)	-10	-14	1.2	7%	-0.6
20	CC(C)n1c(SCC(=O)Nc2ccccc2N2CCCCC2)nc2c1c(=O)n(C)c(=O)n2C	·	·	·	5%&5%	1.0
21	Cc1ccc(/C=C2/N=C(c3ccccc3)NNC2=O)cc1	0	-8	-3.8	·	-0.1
22	CCC(=O)Nc1cc(C(=O)OCC(=O)c2ccccc2)ccc1C	·	·	·	1%	0.2
23	Cc1ccc(CNS(=O)(=O)c2c(C)nc3scc(C)n3c2=O)cc1	5	15	-0.9	·	-0.3
24	Cc1ccc(C(=O)/C=C/NNC(=O)c2ccccc2O)cc1	-8	-6	4.4	17%	-0.1
25	O=c1c(-c2ccc([N+](=O)[O-])cc2)coc2c(O)c(O)ccc12	2	6	-10	15%	0.6
26	Cc1cc(C)n(Cc2ccccc2Cl)n1	·	·	·	1%	-1.4
27	O=C(COC(=O)c1cc(=O)[nH]c(=O)[nH]1)Nc1ccccc1F	27	17	2.4	-1%	0.3
28	CCOC(=O)c1nn(-c2cccc(OC)c2)c2nc(Nc3ccccc3)cc(=O)n12	·	·	·	2%	0.4
29	CCCCc1nc2sc3c(c2c(=O)n1NC(=O)c1ccco1)CC(C)(C)OC3	5	3	-7.0	-2%	1.6
30	O=[N+]([O-])c1ccc(N=Nc2c(O)[nH]c3ccc(F)cc23)cc1	10	8	1.3	-1%	-1.1

#	MLL AF4-AF9 inh	RanGTP-Impb inh	T cruzi repl	Beta apoptosis	Calb FLC
16	1.9	2.0	-15	-3	-9
17	·	?	17	-7	2
18	0.7	?	-5	-3	-4
19	-2.7	-1.8	2	-5	-5
20	·	-1.0	2	3	3
21	0.1	2.3	-2	·	-1
22	·	-0.6	-6	-8	2
23	-0.1	1.7	7	1	3
24	1.6	-3.2	-10	1	-14
25	6.5	3.3	-4	5	-1
26	·	0.7	-8	-7	7
27	-4.5	·	·	2	·
28	·	-0.5	17	0	-2
29	-31	8.3	3	-3	12
30	-1.3	-3.1	5	35	-18

Further records
#	canonical_smiles	Ecoli rRNA inh	Ecoli rRNA inh OD600	Ecoli rRNA inh RFP	Vif A3G	Bfl-1 A1 inh
31	CC1=NN(c2nc(-c3ccccc3)cs2)C(=O)C1	·	·	·	4%	-2.1
32	COC(=O)c1cn(NC(=O)Cc2ccccc2OC)c(=O)c2ccccc12	-4	1	-3.1	7%	2.7
33	COc1cc(OC)cc(C(=O)Nc2cccc(-c3ccc4nncn4n3)c2)c1	·	·	·	-18%	-0.7
34	Cc1occc1-c1nnc(SCCNCCO)o1	11	0	-5.6	·	0.7
35	Cc1ccc(CNC(=O)/C=C/c2ccccc2Cl)cc1	·	·	·	-7%	-0.3
36	NC(=O)Cc1ccc(C(=O)c2ccccc2F)s1	3	4	6.2	0%	-0.1
37	O=C(O)c1c2c(nc3ccccc13)/C(=C/c1ccc(O)cc1)CC2	18	2	11	-2%	-7.1
38	O=C(COc1ccccc1[N+](=O)[O-])NC1CC1	18	1	1.0	6%	0.0
39	COC(=O)/C(=C/c1ccco1)NC(=O)c1ccc(Br)o1	4	2	1.6	7%	0.8
40	CC(=O)NCC(=O)OCC(=O)c1ccc(Br)cc1	·	·	·	24%	0.0
41	O=C(COC(=O)CC1CCCC1)Nc1cc2c(cc1Cl)C(=O)c1ccccc1C2=O	·	·	·	1%	-11
42	Cc1cccc(NC(=S)N2CCN(Cc3ccccc3)CC2)c1C	·	·	·	·	0.2
43	Cc1ccc(NC(=O)CNc2ccc(N3CCOCC3)cc2)cc1S(=O)(=O)N(C)C	4	16	-14	13%	0.2
44	FC(F)(F)c1cnc(-c2cnc(-c3ccncc3)nc2)c(Cl)c1	15	2	0.1	0%	-3.3
45	Nc1nncn1C(=O)CCCOc1ccccc1	·	·	·	1%	0.1

#	MLL AF4-AF9 inh	RanGTP-Impb inh	T cruzi repl	Beta apoptosis	Calb FLC
31	·	-2.0	-12	2	-1
32	-1.9	-0.9	-19	-6	1
33	·	-1.8	-11	8	-7
34	-1.0	-0.6	-7	-1	5
35	·	4.4	-6	-8	-4
36	-17	-2.7	4	-6	10
37	-4.0	-9.9	-13	1	23
38	-1.1	1.3	-3	-5	-15
39	-6.5	4.7	-7	-3	-2
40	·	0.5	-12	2	-4
41	·	-5.3	17	6	5
42	3.6	2.2	-13	-4	-3
43	1.7	0.8	17	6	2
44	0.0	1.0	10	-4	-11
45	·	?	-6	·	-1

(listing goes on)
#	canonical_smiles	Ecoli rRNA inh	Ecoli rRNA inh OD600	Ecoli rRNA inh RFP	Vif A3G	Bfl-1 A1 inh
46	COc1ccc(/C=N/NC(=O)c2cc3c(ccc4ccccc43)o2)c(OC)c1	-37	-68	9.4	·	·
47	CCCCC(CC)CNC(=O)CCCCn1c(=O)[nH]c2ccsc2c1=O (stereo not given)	2	-2	0.8	2%	0.3
48	COCC(C)NC(=O)CSc1nc(-c2ccccc2)c(-c2ccccc2)o1 (stereo not given)	·	·	·	2%	-0.1
49	CCOC(=O)/C=C1\SCC(=O)N1CC(=O)NC(C)C	15	10	-4.4	0%	-0.3
50	O=C1CC(C2CCCO2)C(=O)N1c1ccccc1 (stereo not given)	·	·	·	4%	1.7
51	O=C(NCCc1ccccc1)C(=Cc1ccc(C(=O)O)cc1)C(=O)NCCc1ccccc1	11	9	1.0	31%	0.1
52	CC(C)(C)OC(=O)[C@H](CCCCN)NC(=O)c1nc[nH]c1C(=O)NCCCCCN	17	1	0.4	·	0.1
53	O=C1CCCN1c1cccc(Br)c1	·	·	·	?	-0.7
54	CCOC(=O)CS(=O)(=O)CC(=O)Nc1ccc([N+](=O)[O-])cc1OC	8	4	1.2	-1%	-1.0
55	CCCCCOC(=O)C1=C(C)NC(=O)NC1c1ccccc1 (stereo not given)	-17	-22	-2.2	·	0.8
56	C[C@H]1NC(=O)[C@@]2(C)[C@@H](c3ccccc3)[C@H]3COc4ccccc4[C@@H]3N2C1=O	2	0	1.2	·	0.5

#	MLL AF4-AF9 inh	RanGTP-Impb inh	T cruzi repl	Beta apoptosis	Calb FLC
46	-0.9	-4.4	-13	·	3
47	-2.3	1.1	-6	0	9
48	·	6.9	15	2	0
49	·	-0.3	2	-3	-1
50	·	1.5	13	-4	-14
51	-1.9	-3.8	0	-6	9
52	-3.9	6.6	-15	2	-5
53	·	-0.7	-8	·	-10
54	-5.3	-0.1	-15	-8	1
55	1.5	-1.9	4	·	-1
56	-3.6	·	·	2	·
